ClpP mod – qHTS Assay for Activators of ClpP; 1.9% of 340,000 active; ATP-dependent Clp protease proteolytic subunit (Bacillus subtilis (strain 168)), P80244; purified B. subtilis ClpP, FRET peptide cleavage, 20 min; Potency, µM (series often up to 57.5 µM), for inactives: top-dose activity change, negative = active; AID 651965, 2013; active = well fitted falling curve with a large enough effect; inconclusive = small, poorly fitted or top-dose-only effect; inactive = no such curve, though single readings can be large or run the other way; also: potency is read from the fitted curve at half-maximal effect; the source files actives as falling curves though it sought activators and does not explain the sign; nearly all actives have a fitted effect of over 65% in size; many hits overshoot -100%
Target sequence (P80244 whole entry, looked up): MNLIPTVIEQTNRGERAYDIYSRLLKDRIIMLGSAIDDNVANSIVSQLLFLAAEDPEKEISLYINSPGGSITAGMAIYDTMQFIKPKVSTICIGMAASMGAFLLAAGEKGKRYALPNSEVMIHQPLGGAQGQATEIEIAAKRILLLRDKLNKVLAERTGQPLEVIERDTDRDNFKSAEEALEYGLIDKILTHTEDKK
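Purified B. subtilis ClpP, 10 microg/mL final in Tris/HCl pH8 with KCl, BSA, glycerol and Tween-20, cleaved an Abz/nitrotyrosine-quenched decapeptide. Fluorescence (ex 320, em 430) was read at 0 and 20 min at room temperature. Delta was normalized to 5.8 microM ADEP and DMSO/no-enzyme controls.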
Menin-MLL FL inh – qHTS Assay for Inhibitors Targeting the Menin-MLL Interaction in MLL Related Leukemias: Competition With Fluorescein Labeled MLL-derived Peptide. Fluorescence polarization, fluorescein-MLL peptide displacement from menin. FP activity change, % at 61.4 µM. 290,000 tested, under 10 active; inconclusive = falling polarisation curve, or a change in total fluorescence; inactive = total fluorescence flat and polarisation flat or rising; no compound was filed as active; the % refers to the polarisation; negative = inhibition;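 also: % of control where 0% means no effect; inhibitors lower the polarisation; unlabelled MLL peptide was the positive control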
gsp antagonist – qHTS for Antagonists of gsp, the Etiologic Mutation Responsible for Fibrous Dysplasia/McCune-Albright Syndrome: qHTS. Potency, µM (highest dose often 76.9 µM), for inactives: top-dose activity change, negative = inhibition, usual class: inhibitors. 0.4% of 340,000 active. gsp-mutant cells, cAMP HTRF, 30 min; control for the full effect not named in the record. AID 624288, 2012; active = falling curve of any shape with a large fitted effect; inconclusive = falling curve, mostly with a smaller effect; inactive = flat or rising curve; cell line not stated here;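 also: intracellular cAMP measured with PDE inhibitor Ro 20-1724 present during compound exposure; potency is read from the fitted curve at half-maximal effect; % is scaled to controls: 0 for no effect and ±100 for the full control effect; nearly all actives have a fitted effect of over 65% in size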
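Measurement of cellular cAMP by homogeneous time-resolved fluorescence following a 30 min compound exposure at 37C. The PDE inhibitor […] was present throughout; the assay buffer was DPBS with 0.05% BSA and 0.005% Tween 20.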
gsp agonist – qHTS for Agonist of gsp, the Etiologic Mutation Responsible for Fibrous Dysplasia/McCune-Albright Syndrome: qHTS. gsp mutant cells, cAMP HTRF, 30 min; control for the full effect not named in the record. Potency, µM (top dose mostly 76.9 µM), without a hit: at the highest dose activation (cAMP increase), most hits filed as activators. 0.13% of 340,000 active. AID 624287, 2012; active = well fitted activation curve with a large enough effect; inconclusive = small, poorly fitted or top-dose-only effect, or another doubt; inactive = no such curve, though single readings can be large or run the other way; cell line not stated here;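 also: phosphodiesterase inhibitor Ro 20-1724 added with compounds to block cAMP breakdown; potency is read from the fitted curve at half-maximal effect; nearly all actives have a fitted effect of over 60% in size; about a fifth of the inactives were tested at one dose only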
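Cells in DMEM/10% FBS with G418 were pretreated with compounds in DMSO plus […] (300 uM stock) for 30 min at 37C. cAMP was measured by HTRF (cAMP-d2 plus anti-cAMP antibody-K) after 30 min at room temperature.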
TRPV1 PAM – HTS Assay for Compounds that Act as Potentiators of the Vanilloid Receptor 1; Transient receptor potential cation channel subfamily V member 1 (Homo sapiens), Q8NER1; TRPV1-expressing cells, Fluo-8 calcium influx, capsaicin EC20 potentiation; host cell line not named in the record; control for the full effect not named in the record; potentiation, % at 8.33 µM; 0.02% of 320,000 active; active means potentiation above 80%; inconclusive means 30% to 80%; inactive means below 30%; also: 0% is about no effect
Target sequence (Q8NER1 whole entry, looked up): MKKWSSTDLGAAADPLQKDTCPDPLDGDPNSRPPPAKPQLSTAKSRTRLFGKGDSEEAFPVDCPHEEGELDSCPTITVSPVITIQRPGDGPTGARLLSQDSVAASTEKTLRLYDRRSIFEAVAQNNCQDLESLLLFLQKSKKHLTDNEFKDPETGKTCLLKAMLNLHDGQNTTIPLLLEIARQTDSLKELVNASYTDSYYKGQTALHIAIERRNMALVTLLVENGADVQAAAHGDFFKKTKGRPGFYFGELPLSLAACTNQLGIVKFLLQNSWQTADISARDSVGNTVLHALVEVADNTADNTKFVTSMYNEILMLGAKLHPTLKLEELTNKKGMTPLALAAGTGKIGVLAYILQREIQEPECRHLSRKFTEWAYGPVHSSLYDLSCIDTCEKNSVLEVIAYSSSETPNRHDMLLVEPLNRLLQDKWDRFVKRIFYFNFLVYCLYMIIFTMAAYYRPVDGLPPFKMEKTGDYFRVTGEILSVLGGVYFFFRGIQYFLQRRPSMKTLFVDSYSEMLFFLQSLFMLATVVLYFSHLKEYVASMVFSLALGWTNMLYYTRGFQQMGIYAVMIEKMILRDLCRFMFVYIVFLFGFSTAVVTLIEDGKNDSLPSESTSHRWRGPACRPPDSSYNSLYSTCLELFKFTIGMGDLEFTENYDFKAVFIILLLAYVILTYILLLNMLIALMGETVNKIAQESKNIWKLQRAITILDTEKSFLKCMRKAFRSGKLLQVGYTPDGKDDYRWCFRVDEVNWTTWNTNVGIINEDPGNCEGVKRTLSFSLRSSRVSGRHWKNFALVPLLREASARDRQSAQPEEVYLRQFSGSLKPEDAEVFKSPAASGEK
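Cells expressing TRPV1 were dye-loaded with Fluo-8 and read kinetically: 10 s baseline, 3 min after compound (agonist portion), then 2 min after EC20 capsaicin (allosteric enhancer portion). Calcium-bound dye fluorescence at 480/520 nm.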
Sfp inh – qHTS Assay for Inhibitors of Bacillus subtilis Sfp phosphopantetheinyl transferase (PPTase); AID 1490, 2009; 3.5% of 310,000 active; Biochemical Sfp PPTase activity, qHTS; Potency, µM, without a hit: max response, negative = inhibition, actives largely listed as inhibitors; active = well fitted inhibition curve with a large enough effect; inconclusive = small, poorly fitted or top-dose-only effect, or another doubt; inactive = no such curve, though single readings can be large or run the other way;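 also: the enzyme is Sfp with the accession as filed and its product quenches rhodamine fluorescence; potency is read from the fitted curve at half-maximal effect; 0% = enzyme reaction without inhibitor and -100% = no enzyme wells; top concentration of the series not given in the record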
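Buffer: 50 mM Hepes-Na pH 7.6, 10 mM MgCl2, 0.01% Nonidet P-40, 0.01% BSA. Enzyme 15 nM, pre-exposed to compound 15 min; substrates then added and fluorescence change tracked over 30 min.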
D2 potentiator – Beta-Arrestin HTS for Positive Allosteric Modulators of the Human D2 Dopamine Receptor: Potentiators. DiscoveRx D2 beta-arrestin cells, luminescence, 90 min; 100% = 57 uM dopamine signal. potentiation, % (no concentration beside the values). 0.23% of 360,000 active. AID 624464, 2012; active = potentiation of 50% or more; inconclusive = 30% to 50%; inactive = 30% or less;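 also: compound concentration not given in the record; tested on top of an EC20 dose of dopamine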
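PathHunter D2 cells, attached overnight at 37 deg C, received compound in DMSO plus dopamine at EC20 (50 nM final) for 90 min at 37 deg C. Beta-arrestin recruitment was read as luminescence after 1 h with detection reagent at ambient temperature.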
* hit, by the source's call; ? = inconclusive; . = not tested or not shown; & = joins results of further samples; [ ] = remark or other dose.

Values run as follows: ClpP mod	Menin-MLL FL inh	gsp antagonist	gsp agonist	TRPV1 PAM	Sfp inh	D2 potentiator
O=S(=O)(c1ccc(Cl)s1)N1CCC2(CC1)OCCO2
  0.5%	-3.1	12%	-7%[15.4 µM]	14	24%	-7
CC(C)(C)[C@H]1C=C(C(=O)NCc2nc3ccccc3[nH]2)O[C@@H](OCc2ccc(CO)cc2)C1
  0.7%	0.4	-15%	.	?	20%	-4
Cc1ccc(-n2nc(-c3ccc(OC(F)(F)F)cc3)cc2N)cc1C
  0.0%	0.9	-7%	-3%[15.4 µM]	.	2%	-2
Cn1ncc(Cl)c1C(=O)Nc1ccc(Cl)cn1
  ?	-2.5	0%	?	5	6%	-1
O=C1NC(=O)C(CCc2ccccc2)(c2ccccc2)N1 (stereo unspecified)
  1.1%	.	11%	6%	.	.	3
Cc1nc(SCC(=O)c2cc3ccccc3oc2=O)c(C#N)c(-c2cccs2)c1C(=O)Nc1ccccc1
  .	-0.3	-17%	?	8	?	-6
COc1ccccc1CNC(=O)c1cccs1
  -3.7%	-1.6	5%	10%	-6	11%	-3
CCOC(=O)c1cc(C)sc1/N=C/C1C(=O)CCCC1=O
  -0.1%	0.4	-2%	?	-15	-5%	6
COCC1CCCCN1C(=O)c1ccc(OC)c(OC2CCN(C(C)C)CC2)c1 (stereo unspecified)
  -1.8%	.	-14%	1%	3	7%	-6
Cc1ccc(/C=N/N2CCN(c3ccncc3S(=O)(=O)N3CCCCC3)CC2)cc1
  -0.6%	7.7	-1%[15.4 µM]	0%	2	-27%	-15
COCCOc1ccc(C(F)(F)F)cc1NC(=O)COC(=O)c1cc[n+]([O-])cc1
  .	.	0%	-20%[15.4 µM]	13	.	0
CC(=O)c1cccc(NC(=O)CN2C(=O)NC3(CCCCCCC3)C2=O)c1
  0.0%	-0.8	9%	-2%	7	-5%	-3
COc1cccc(NC(=O)CN(C)C(=O)c2ccc(Cl)c(S(=O)(=O)N3CCCCCC3)c2)c1
  .	.	-10%	-31%[15.4 µM]	-18	.	-17
Cc1ccc(-c2cc([C@H]3[C@H]4C=CC[C@@H](C)[C@@H]4C(=O)N3Cc3ccccc3)ccc2F)cc1
  -2.7%	5.4	-9%	.	?	-17%	-9
Cc1cccc(NC(=O)NNC(=O)COc2ccc([N+](=O)[O-])cc2)c1C
  1.4%	?	11%	-36%[inhibitor]	-1	-2%	-24
Cc1ccnc(NC(=O)CCNC(=O)c2ccccc2Cl)c1
  -1.2%	.	3%	-2%	-10	16%	8
Cc1cc(C)nc(Sc2ccc(/C=C(\C#N)C(N)=O)o2)n1
  28µM*	11	-8%	12%[15.4 µM]	12	6%	-9
O=c1sc2ccccc2n1Cc1ccccc1
  .	0.6	3%	11%	-3	2%	-7
COc1ccc(CN2C(CC(=O)Nc3cccnc3)c3ccc(C(F)(F)F)cc3S2(=O)=O)cc1 (stereo unspecified)
  1.7%	.	3%	.	.	.	-6
CC(=O)c1ccc(NC(=O)COC(=O)C2C3CC4OC(=O)C2C4C3)cc1 (stereo unspecified)
  .	6.1	2%	13%[15.4 µM]	-6	22%	-3
CCN(CC)S(=O)(=O)c1ccc(/C=C/C(=O)OCC(=O)NCc2ccc3c(c2)OCO3)cc1
  ?	-3.4	7%	-5%[15.4 µM]	-7	10%	-4
c1ccc2c(c1)c1ccccc1n2CN1CCOCC1
  -6.1%	-3.2	0%	?	5	12%	-7
Cn1c(C(=O)NC2CCCCC2)cc2c(=O)n(C)c3ccccc3c21
  -18%	1.5	-9%	?	-20	16%	-1
COc1ccc(CNC(=O)CN2C(=O)COc3ccc(S(=O)(=O)NC4CCCC4)cc32)cc1
  0.1%&-3.4%	0.5	-11%	?	1	10%	-8
COC(=O)c1sccc1NC(=O)Nc1ccc(F)cc1F
  15%	5.4	-1%	4%	-10	9%	-19
COc1ccc([N+](=O)[O-])cc1NC(=O)CCC(=O)c1cccs1
  .	0.5	-6%	-2%[15.4 µM]	-11	15%	-6
O=C(O)CC(C(=O)Nc1cccc(C(F)(F)F)c1)C1CCCO1 (stereo unspecified)
  -0.2%	0.3	-1%	-17%	7	5%	-8
Cc1c(C(=O)N2CCOCC2)sc(NC(=O)CCl)c1C#N
  .	1.0	-12%	8%	1	-5%	-2
COc1ccc(/C=N/NC(=O)c2cc(-c3cccn3C)n[nH]2)cc1OC
  -5.1%	3.3	9%	20%	4	5%	-15
CN1CCN(C(=O)c2ccc(Cl)c(S(=O)(=O)N3CCCCC3)c2)CC1
  0.7%	3.5	5%	-14%	2	0%	1
NC(=O)CC(NC(=O)Cc1cccc2ccccc12)c1ccc(N2CCC(Br)CC2)c([N+](=O)[O-])c1 (stereo unspecified)
  2.2%	0.7	-8%	.	12	4%	-16
Cc1cccc(NC(=O)CCCN2C(=S)NC(C)(C)CC2C)c1C (stereo unspecified)
  .	-0.3	4%	6%[15.4 µM]	-8	13%	-12
CC(=NNC(=S)N1CCN(c2ccccn2)CC1)c1nccs1
  ?	.	-9%	?	.	.	-19
CCOC(=O)C(C)CC(C)C(=O)N1CCOCCOCCN(C(=O)C(C)CC(C)C(=O)OCC)CCOCC1 (stereo unspecified)
  -0.8%	2.1	-9%	19%	0	16%	3
COc1cccc(OC)c1CNC(=O)C1CCC(=O)N(CC2CCCCC2)C1 (stereo unspecified)
  0.9%	0.3	6%	-4%	-2	8%	-12
O=C(CN1C(=O)NC2(CCc3ccccc32)C1=O)c1ccc(Cl)cc1 (stereo unspecified)
  .	.	7%	0%[15.4 µM]	6	.	-68
O=C(Oc1ccc(-c2nccc(-c3ccccn3)n2)cc1)c1cccc(C(F)(F)F)c1
  1.2%	3.8	11%	7%	5	13%	-4
CC1=CC(=O)C(C(C)C)=CC1=NC(=O)c1ccc(C)cc1
  1.2%	0.5	-1%	-64%[inhibitor]	4	10µM*	-2
Cn1c(Cc2ccccc2)nnc1SCC(=O)Nc1ccc2c(c1)OCO2
  -1.0%	6.1	1%	-27%	3	20%	-13
COc1ccc(CCNC(=S)c2ccccc2)cc1OC
  -0.4%	5.8	-19%	21%	-22	5%	1
Nc1c(Cl)c(Cl)nc(C(=O)OCC(=O)NC2CCCCC2)c1Cl
  -2.8%	.	-3%	-4%[15.4 µM]	19	-1%	?
CC(O)[C@H]1CNC(=O)C(=O)N1CCc1cccc(F)c1 (stereo partly specified)
  0.9%	4.7	-3%	?	0	7%	-1
CCN1C(=O)c2cccc3c(S(=O)(=O)N4CCCC4C(=O)O)ccc1c23 (stereo unspecified)
  .	.	-12%	6%[15.4 µM]	0	17%	-3
CN1CCN(C(=O)C2=C[C@@H](C3CCCCC3)C[C@@H](OCc3ccc(CO)cc3)O2)CC1
  0.4%	1.0	8%	.	-20	-12%	-17
C[C@@]12CCC3[C@@](CCC4[C@@]3(C)CCC[C@@]4(C)C(=O)NCc3ccccc3)(CC1=O)C2 (stereo partly specified)
  -1.1%	.	-23%	-4%	0	.	-10
Cc1cc(C)c(C)c(S(=O)(=O)N2CCN(CC(=O)Nc3sccc3C#N)CC2)c1C
  2.0%	8.9	-7%	-15%	4	-4%	-8
FC(F)(F)c1nnc2ccc(NCn3nnc4ccccc43)nn12
  2.3%	0.5	15%	?	?	-15%	-11
c1ccc(CSc2ncn[nH]2)nc1
  .	3.7	0%	8%[15.4 µM]	-3	10%	-5
CCCCC(CC(O)COCCC)C(=O)NN (stereo unspecified)
  .	-0.4	12%	-8%[15.4 µM]	-3	22%	-1
CC(=O)N1CCN(C(=O)c2cccc(S(=O)(=O)N3CCN(c4ccccc4)CC3)c2)CC1
  -0.1%	.	-4%	?	-10	.	-3
Cn1c(SCC(=O)Nc2ccc(N3CCOCC3)c(Cl)c2)nnc1-c1ccccc1
  -1.0%	.	4%	27%	.	.	-4
COc1ccccc1NCC(=O)N/N=C(\C)c1cccs1
  .	2.5	-8%	7%[15.4 µM]	-8	-5%	0
CCCCC#Cc1ccccc1CC(=O)Nc1ccccc1
  1.9%	2.2&6.2	-9%	12%	-18	13%&-9%	-12
CC(C)N(C(=NCc1ccccc1)NC(=O)c1ccccc1)C(C)C
  -0.7%	.	6%	-4%	-38	.	0
FC(F)(F)Oc1ccc(NC(=S)Nc2ccccc2N2CCOCC2)cc1
  .	3.7	-8%	11%	?	-5%	-1
NC(=O)c1ccc(NC(=O)COC(=O)c2ccc(Br)o2)cc1
  -0.7%	.	-1%	-25%	-6	.	0
CCOc1ccccc1NC(=O)c1cccc2c1C(=O)N(C1CCCCC1)C2
  -2.9%&1.6%	.	10%	-22%	-11	-8%	-9
O=C(CNc1ccccc1)N/N=C/c1c[nH]c2ccccc12
  -3.0%	-1.7	-3%	-84%[inhibitor]	15	4%	-3
CCc1cccc(CC)c1NC(=O)Cn1c(-c2ccccc2Cl)nc2ccccc21
  0.3%	3.5	-17%	14%[15.4 µM]	8	-11%	-6
CC1(C)Oc2ccc(C(=O)Nc3ccccc3)cc2N(CC#N)C1=O
  .	-0.8	-8%	6%	-32	-1%	7
Cc1nn(-c2ccccc2)c(C)c1C(=O)OCC(=O)N1c2ccccc2NC(=O)C1(C)C
  -2.1%	3.1	?	2%	-7	5%	12

Source: PubChem (National Center for Advancing Translational Sciences (NCATS))
